# StopGo RLuc = lowers the Renilla signal of an FMDV 2A StopGo reporter; HEK cells with a luciferase reporter of 2A StopGo recoding; Potency, µM (top dose mostly 57.5 µM), inactives show at the highest dose signal change, negative = less light; 0.32% of 120,000 active; AID 1745857; active means well fitted falling curve with a large enough effect; inconclusive means small, poorly fitted or top-dose-only effect; inactive means no such curve, though single readings can be large or run the other way; further: nearly all actives have a fitted effect of over 55% in size; overnight with compound
# StopGo FLuc = FMDV 2A StopGo reporter, firefly signal | Potency, µM (doses to about 57.5 µM), for inactives: at the highest dose signal change, negative = less light | HEK cells with a luciferase reporter of 2A StopGo recoding | 0.23% of 120,000 active; active = well fitted falling curve with a large enough effect; inconclusive = small, poorly fitted or top-dose-only effect; inactive = no such curve, though single readings can be large or run the other way; further: nearly all actives have a fitted effect of over 60% in size; overnight with compound
# Active calls of the source: *; & = joins results of further samples; [ ] = another dose, or the depositor's remark. On the % scale 0 is the no-effect control and ±100 the full control effect; potency means the concentration at half of the fitted maximal effect. These rows are one share of the data; rates above refer to the full screens.
SMILES,StopGo RLuc,StopGo FLuc
COc1ccc(CN2C(=O)c3ccccc3C2C(=O)NC2CCCCCC2)c(OC)c1 (stereo not given),85%[activator],0%
O=C(CCc1cc2ccccc2o1)NC12CC3CC(CC(C3)C1)C2,8%,46%[activator]
O=C(NCc1cccnc1-n1cccn1)c1ccc(-c2ccc(F)cc2)o1,13%,16%
C=CCC(CC=C)(CNC(=O)C(=O)Nc1ccc(Br)cc1)c1ccc(OC)c(OC)c1,2%,-3%
Cc1ccc(CC(=O)NC2CC3CCC2(C)C3(C)C)cc1C (stereo not given),0%,1%
O=C(COC(=O)c1ccc(NC(=O)c2ccco2)cc1)c1ccccc1,3%,54%[activator]
CCCc1nn2c(C)c(-c3ccccc3)nc2s1,0%,125%[activator]
CC(NCc1c[nH]c2ccccc12)c1ccccc1 (stereo not given),-21%,-3%
Cc1ccc(-c2nc(NC(=O)CSc3nc(C)nc4sc5c(c34)CCCC5)ns2)cc1,-4%,23%
O=C(Cc1ccccc1)N(Cc1cccnc1)c1nc2c(F)cc(F)cc2s1,-3%,-8%
Cc1ccc(C2=NS(=O)(=O)N(C)C(C(=O)Nc3ccn(Cc4ccccc4C)n3)=C2)cc1,-7%,-15%
O=C(Nc1cccc(C(F)(F)F)c1)c1nc2ccccc2nc1N1CCCC1,21%,10%
COc1ccc2c(C)c(CCC(=O)NCc3ccc4c(c3)OCO4)c(=O)oc2c1C,-12%,0%
CCOC(=O)c1sc(-c2ccc3c(c2)OCCO3)cc1NC(=O)c1ccco1,0%,0%
NC(=O)c1cccc(NC(=O)c2cccc3ncccc23)c1,0%,0%
CCOc1ccc(C(=O)Nc2ccc(C(=O)OCc3cc(=O)n4nc(CC)sc4n3)cc2)cc1,-9%,-10%
Cc1ccc(C)c(-c2csc(NC(=O)c3cc(C)on3)n2)c1,-29%,88%[activator]
Cc1cc(C)c(/C=C/C(=O)c2ccccc2)c(C)c1,12%,248%[activator]
COc1ccc(Br)c(C(=O)Oc2ccccc2OC)c1,8%,11%
O=C1OCCC1N1CCN(c2ccccc2O)CC1 (stereo not given),-1%,-2%

# The last two records of the part above lead into the next:
SMILES,StopGo RLuc,StopGo FLuc
COc1ccc(Br)c(C(=O)Oc2ccccc2OC)c1,8%,11%
O=C1OCCC1N1CCN(c2ccccc2O)CC1 (stereo not given),-1%,-2%
CCCC(=O)Nc1ccc2nc(SCC(=O)N3CCOCC3)sc2c1,56%[activator],10%
CCN1CCN(C(c2ccc(F)cc2)c2sc3nc(-c4ccco4)nn3c2O)CC1 (stereo not given),24%,-9%
CC(NC(=O)CCNC(=O)C1CCCC1)c1ccccc1 (stereo not given),-10%,5%
CCc1ccc(OCC(=O)Nc2ccc(Cl)c(-c3nc4ncccc4o3)c2)cc1,4%,36%[activator]
CCCCn1c(=O)[nH]c(=O)c2c1nc(CN1CCN(S(=O)(=O)c3ccc(F)cc3)CC1)n2CC,12%,17%
O=C(NCCc1ccccc1)c1ccc(CS(=O)Cc2ccc(Cl)cc2)o1 (stereo not given),-15%,-10%
Cc1nn(-c2ccccc2)c2sc(C(=O)Nc3ccc(Br)cc3)cc12,-3%,-3%
O=C(O)c1ccc(NC(=O)c2ccc(Br)o2)cc1,-8%,50%[activator]
Cc1ccc(Cl)cc1N1CCN(C(=O)c2cc3c(=O)n(C)c4ccccc4c3s2)CC1,-8%,-20%
CCCCSc1nnc(COc2ccc(Cl)cc2)n1C,57%[activator],0%
O=Cc1ccc(OCc2ccc(I)cc2)c(Cl)c1,4%,226%[activator]
CCCn1nc(C(=O)N2CCN(Cc3ccccc3F)CC2)c2ccccc2c1=O,0%,-4%
CCCCCC(=O)N(c1ccc(OCC)cc1)S(=O)(=O)c1ccc2c(c1)n(C)c(=O)n2C,35%[activator],-14%
CCOC(=O)c1cc(N)cc(C(=O)OCC)c1,25%,39%[activator]
CCCn1nnnc1CN1CCCC1c1ccc(OCC)cc1 (stereo not given),0%,5%
Cn1c(SCC(=O)N2CCCc3ccccc32)ncc(C(=O)Nc2ccc(Cl)cc2)c1=O,-16%,-18%
CCOc1ccc(NC(=O)c2oc3ccccc3c2NC(=O)Cc2cccc(C)c2)cc1,-3%,4%
O=C(CN1N=C(c2ccc(Cl)cc2)CCC1=O)NCc1ccc(F)cc1,-13%,-12%
CC12CCC(C(=O)O/N=C3\CC4CCC3(C)C4(C)C)(CC1=O)C2(C)C (stereo not given),20%,14%
Cc1ccccc1NC(=O)c1ccc2ccccc2n1,1%,169%[activator]
CC1=C(C(=O)N2CCCCC2)C(c2ccc(N(C)C)cc2)C2=C(CC(C)(C)CC2=O)N1 (stereo not given),0%,2%
COc1ccc(-c2nnc(SCC(=O)NCCC(C)C)nc2-c2ccc(OC)c(OC)c2)cc1OC,-8%,-22%
N#Cc1nc(COc2ccc(F)cc2)oc1NCCN1CCOCC1,-11%,5%
Cc1nn(-c2ccc(N3CCCC3)nn2)c(C)c1CCC(=O)N1CCN(c2ccc(F)cc2)CC1,17%,-9%
Cc1ccc(Cn2c(=O)n(-c3ccccc3)c(=O)c3ccc(C(=O)NCc4ccco4)cc32)cc1,238%[activator],-13%
Cc1ccc(OCC(=O)Nc2ccc3c(c2)nc(CCn2ccccc2=O)n3C)cc1,14%,17%
Cc1ccc(Cn2c(SCC(O)CO)nc3c2c(=O)[nH]c(=O)n3C)cc1 (stereo not given),0%,40%[activator]
COc1ccc(CCNC(=O)C2CCN(c3nc4ccccc4nc3C(F)(F)F)CC2)cc1OC,-6%,-9%
CCC(Cn1nnc2ccccc2c1=O)NC(=O)Nc1cccc(C)c1C (stereo not given),82%&41%[activator],19%&-9%
CCCCOc1cccc(C(=O)N(Cc2ccc(Br)o2)C2CCS(=O)(=O)C2)c1 (stereo not given),15%,-26%
O=C(CN1CCC(C(=O)c2ccccc2)CC1)NC1CCC(C(F)(F)F)CC1 (stereo not given),4%,-9%
CC(C(=O)N(C)CC(=O)Nc1ccccc1C(F)(F)F)N1CCN(Cc2ccc(Cl)cc2)CC1 (stereo not given),-18%,0%
O=C(CSc1nnnn1C1CCCCC1)N(Cc1cccs1)c1ccc2c(c1)OCCO2,22%,-2%
Cc1cc(C)c(Nc2nn3c(=O)c4cc5c(cc4nc3s2)OCO5)c(C)c1,8%,-1%
Cc1nc(NC(=O)c2ccccc2)sc1-c1csc(Nc2ccc(C(F)(F)F)cc2)n1,7%,23%
O=C(Nc1cc(-c2nc3cc(Cl)ccc3o2)ccc1Cl)c1cc2ccccc2o1,2%,45%[activator]
CCn1c(NCc2ccccc2)nc2c1c(=O)n(C)c(=O)n2C,-5%,-10%
COc1ccccc1C(=O)Oc1c(Cl)cc(C#N)cc1OC,0%,-2%
CC(=O)NN=C(C)C,7%,-6%
COc1ccccc1CC(=O)Oc1ccc2c(c1)OCO2,4%,-5%
Cc1ccc(N2CCN(c3nc4ccc(C)cc4n4nnnc34)CC2)c(C)c1,-6%,-13%
Cc1ccc2c(c1)N(C(=O)CCC(=O)NCc1ccccc1F)CC(C)O2 (stereo not given),1%,-2%
CC(=O)N1CCN(C(=O)CSc2cc(C)c3cc(C)cc(C)c3n2)CC1,-2%,-3%
O=C(Nc1ccc(CC(=O)N2CCOCC2)cc1)c1cc(Br)ccc1F,0%,26%
C#CC[N+](C)(C)C(C#Cc1ccccc1)CC=C (stereo not given),-3%[1.06 µM],-5%
COc1cccc(/C=C/C(=O)c2ccc(OC(F)F)cc2OC(F)F)c1OC,48%[activator],24%
COc1ccc(CNC(=O)Cc2c(C)c3c(OC(C)=O)cc(OC(C)=O)cc3oc2=O)cc1OC,35%[activator],28%
Cc1ccccc1C(=O)Nc1ccc2oc(-c3ccc(F)cc3)cc(=O)c2c1,0%,124%[activator]
CCOC(=O)c1cc(-c2ccc(F)cc2)n(CC(=O)NC2CCCCC2)c1C,-9%,-13%
Cc1ccc(C(=O)n2nc(C)c(S(=O)(=O)N3CCOCC3)c2C)cc1C,-9%,5%
CCc1cccc(C)c1NC(=O)Cn1c(=O)n(-c2cccc(C)c2)c(=O)c2c1c1cc(C)ccc1n2C,-15%,-17%
CCOC(=O)c1c(S(=O)(=O)N2CCC(C(=O)Nc3ccc(F)cc3)CC2)c(C)n(C)c1C,18%,3%
COc1ccc2c(c1)c1c(c(=O)n(-c3ccc(OC)c(OC)c3)c(=O)n1Cc1ccc(F)cc1)n2C,-23%,-22%
O=C(C(Sc1nncn1-c1ccccc1F)c1ccccc1)N1CCCCC1 (stereo not given),34%[activator],99%[activator]
Cc1c(C(=O)Nc2cccc(C(F)(F)F)c2)sc2nc3n(c(=O)c12)CCC3,-23%,15%
C=CCNC(=O)NC(=O)CN(C)Cc1ccc(OC)c(OC(F)F)c1,13%,13%
Cc1ccc(NC(=O)c2c(C)oc3c2C2=NCCN2C=N3)cc1F,-3%,18%
O=C(NCc1ccccc1)c1cccc2c1C(=O)N(C1CCCCC1)C2,3%,5%
CC(C1CC1)N(C)C(=O)/C=C/c1cccc(C#N)c1 (stereo not given),17%,0%
COc1cc(Cl)c(C)cc1NC(c1ccccc1)c1nnc(-c2ccccc2Cl)o1 (stereo not given),-1%,21%
COc1ccc(CNC(=O)Cn2c(=O)ccc3cc(S(=O)(=O)N4CCCC4)ccc32)cc1,-11%,15%
CCOC(=O)c1ccc(NC(=O)Nc2cccc(OCc3cc(=O)n4ccc(C)cc4n3)c2)cc1,8%,-12%
N#Cc1cccnc1NCCNC(=O)Nc1ccccn1,4%,157%[activator]

# Full records, looked up by structure. Screens in order: StopGo RLuc | StopGo FLuc
# O=C(C(Sc1nncn1-c1ccccc1F)c1ccccc1)N1CCCCC1 (stereo not given) as listed: 34%[activator] | 99%[activator]
# C=CCNC(=O)NC(=O)CN(C)Cc1ccc(OC)c(OC(F)F)c1 as listed: 13% | 13%
# CC(C1CC1)N(C)C(=O)/C=C/c1cccc(C#N)c1 (stereo not given) as listed: 17% | 0%

# Single values from the results shown:
# CC(=O)NN=C(C)C – StopGo RLuc = 7%
# COc1cccc(/C=C/C(=O)c2ccc(OC(F)F)cc2OC(F)F)c1OC – StopGo FLuc = 24%
# Cc1cc(C)c(/C=C/C(=O)c2ccccc2)c(C)c1 – StopGo RLuc = 12%
# COc1ccc(-c2nnc(SCC(=O)NCCC(C)C)nc2-c2ccc(OC)c(OC)c2)cc1OC – StopGo RLuc = -8%
# CCOC(=O)c1c(S(=O)(=O)N2CCC(C(=O)Nc3ccc(F)cc3)CC2)c(C)n(C)c1C – StopGo FLuc = 3%
# CCn1c(NCc2ccccc2)nc2c1c(=O)n(C)c(=O)n2C – StopGo RLuc = -5%
